From PubChem BioAssay
TAR Tat displ – HIV-1 TAR-Tat binding disruption. HIV-1 TAR RNA, Tat peptide displacement FRET; hits give high values. z-score (concentration not given with the values). 100,000 tested, 0.6% active. AID 1259389;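 note: score is relative to mean and SD of negative controls; some compounds called inactive have numbers as strong as hits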
CDC25B-CDK2 inh – human CDC25B-CDK2/CyclinA binding inhibition; z-score (no concentration beside the values); HTRF CDC25B-CDK2/CyclinA binding, anti-His/anti-Flag; hits give high values; AID 1259370; 94,000 tested, 0.72% active; P30305+P24941;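 note: score is relative to mean and SD of negative controls; strong numbers were not always called active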
* = called active by the depositor.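 Rule for the calls: active = z-score from 3 up in half or more of its runs; inactive = the rest.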 No enrichment for hits. About 0.89% of those tested had a hit in this group.

Screening CN(C1CCCCC1)S(=O)(=O)c1ccc(CCN2C(=O)c3cccnc3C2=O)cc1 returned TAR Tat displ 1.3.
Screening O=c1c(C=NCc2cccs2)c(C(F)(F)F)[nH]n1-c1nc2ccccc2s1 returned CDC25B-CDK2 inh -1.9.
NC(=O)CSc1nnc(CSc2ncccn2)n1CCc1ccccc1 was read as TAR Tat displ 1.4 and CDC25B-CDK2 inh -1.1.
For Cc1cc(=O)[nH]c(C(C)C)n1 the results were CDC25B-CDK2 inh 0.15.
`COc1ccc2c(c1)c(C(=O)CNc1nc(C)cs1)c(C)n2C` gave TAR Tat displ 1.3 and CDC25B-CDK2 inh -0.35.
For CCC(C(=O)N1CCN(C(=O)c2ccco2)CC1)n1nc(C)c2sc3ccccc3c2c1=O (stereo unspecified) the results were TAR Tat displ 2.6 and CDC25B-CDK2 inh -0.48.
For Cc1c(C(=O)NCCCN2CCCC2=O)oc2ccc3c(c12)C(O)CC(C)(C)O3 (stereo unspecified) the results were TAR Tat displ 0.23.
`COCCCN1C(=O)C(=O)/C(=C(/O)c2ccccc2)C1c1cccc(OC)c1` (stereo unspecified) gave TAR Tat displ -1.5 and CDC25B-CDK2 inh -1.5.
`O=c1cc(-c2cc(O)c(O)c(O)c2)oc2cc(O)cc(O)c12` gave TAR Tat displ 10*.
For CCSc1nn2c(=O)cc(COc3ccc(C(C)C)cc3)nc2s1 the results were TAR Tat displ -2.4 and CDC25B-CDK2 inh -1.2.
For O=C(Cn1c(=O)oc2cc(S(=O)(=O)N3CCCCC3)ccc21)NC1CCCCC1 the results were CDC25B-CDK2 inh -1.8.
`Fc1ccccc1CN1C2=NCCN2c2ccccc21` gave TAR Tat displ -1.2 and CDC25B-CDK2 inh -0.73.
For CC(C)c1ccc(C2C=C(c3cccnc3)Nc3ncnn32)cc1 (stereo unspecified) the results were TAR Tat displ 2.1.
Screening Nc1nc(NCc2ccccn2)n[nH]1 returned CDC25B-CDK2 inh 0.83.
Screening O=C(NCCSCc1ccc2nonc2c1)c1ccc(Cl)cc1Cl returned CDC25B-CDK2 inh -2.4.
Screening CC(=O)N1CCc2cc(NC(=S)Nc3ccccc3Cl)ccc21 returned CDC25B-CDK2 inh -0.03.
Screening O=C(CCS(=O)(=O)c1ccc2c(c1)CCN2C(=O)C1CC1)NCc1ccc(Cl)cc1 returned TAR Tat displ -0.01.
Screening O=C(NCCN1CCCC1)c1ccc2c(c1)sc1nc(-c3ccccc3)cn12 returned TAR Tat displ -0.82.
`CN1CCN(C(=O)CN2C(=O)COc3ccc(S(=O)(=O)N4CCOCC4)cc32)CC1` gave TAR Tat displ 0.44 and CDC25B-CDK2 inh -1.3.
Screening Cc1ccc(C(=O)CC#N)cc1 returned CDC25B-CDK2 inh -2.4.
For O=C(CCCCCn1c(=S)[nH]c2ccccc2c1=O)N1CCc2ccccc2C1 the results were CDC25B-CDK2 inh -4.5.
Cc1csc2nc(CSc3nnc(-c4ccccc4)o3)cc(=O)n12 was read as TAR Tat displ 0.47 and CDC25B-CDK2 inh -1.7.
For O=C1CN(C(=O)c2ccco2)c2ccccc2N1 the results were TAR Tat displ -0.24 and CDC25B-CDK2 inh -1.8.
`COc1cc(-c2cc(C(=O)O)c3c(-c4ccc(C)cc4)[nH]nc3n2)ccc1O` gave TAR Tat displ 3.7.
Screening CC(C)N1C(=O)C(O)(CC(=O)c2ccc(C(C)(C)C)cc2)c2ccccc21 (stereo unspecified) returned CDC25B-CDK2 inh 1.4.
Cc1ccccc1NC(=O)CN1N=NC2C(=O)N(c3ccccc3)C(=O)C21 (stereo unspecified) was read as CDC25B-CDK2 inh 0.41.
For COC(=O)c1cc(-n2cccc2)ccc1N1CCOCC1 the results were CDC25B-CDK2 inh -2.2.
Screening CC1(C)SC2C(NC(=O)Cc3ccccc3)C(=O)N2C1C(=O)O (stereo unspecified) returned TAR Tat displ 0.65 and CDC25B-CDK2 inh -1.9.
For Cc1nc2c3ccccc3n3c(CCCC(=O)N4CCN(c5ccccc5)CC4)nnc3n2n1 the results were TAR Tat displ 1.2 and CDC25B-CDK2 inh -0.05.
`COc1ccc(Nc2nc(NCCN3CCOCC3)nc3c2cnn3C)cc1Cl` gave TAR Tat displ 0.83.
`COC(=O)c1ccc([C@H]2Nc3ccc(S(=O)(=O)Nc4ccc(F)cc4)cc3[C@H]3C=CC[C@H]32)cc1` gave CDC25B-CDK2 inh -0.38.
For Cc1ccc(-c2n[nH]c3c2C(c2ccc(C(C)C)cc2)NC3=O)cc1 (stereo unspecified) the results were TAR Tat displ 1.6.
`O=C1C=C(c2ccccc2)C(=O)C=C1Cl` gave CDC25B-CDK2 inh -0.88.
Cc1ccc2oc(SCC(=O)N(c3ccccc3)c3ccccc3)nc2n1 was read as TAR Tat displ 2.3.
`Cc1ccc(-c2n[nH]c(=O)c3c2CCCC3)cc1S(=O)(=O)NCCc1cccs1` gave TAR Tat displ -1.9 and CDC25B-CDK2 inh 0.36.
CC(=O)N1CCc2cc(S(=O)(=O)C(C)CC(=O)Nc3ccc(Br)c(C)c3)ccc21 (stereo unspecified) was read as TAR Tat displ 1.2.
Screening Cn1ccc2cc(S(=O)(=O)N3CCN(C(=O)Nc4ccc5c(c4)OCCO5)CC3)ccc21 returned TAR Tat displ 0.5.
Screening CC(c1ccccc1)n1c(/C=C/c2ccco2)nc2ccccc21 (stereo unspecified) returned TAR Tat displ -6.2 and CDC25B-CDK2 inh 2.6.
Screening O=C(NC1CC1)c1cc(-c2cccnc2)nc2ccccc12 returned CDC25B-CDK2 inh -1.4.
For Cc1ccc(-c2noc(CN3C(C)CCCC3C)n2)cc1 (stereo unspecified) the results were TAR Tat displ 0.4 and CDC25B-CDK2 inh -0.71.
Screening CCC(=O)Nc1nc2ccc(NC(=O)c3cnccn3)cc2s1 returned TAR Tat displ 0.79.
`O=C(Nc1ccccc1)Nc1ccccc1C(=O)NC1CCSC1` (stereo unspecified) gave CDC25B-CDK2 inh -0.01.
CCCCNC(=O)c1cnc2sc(N3CCC(C)CC3)nn2c1=O was read as TAR Tat displ -0.37.
O=C(Nc1ccc2c(c1)OCCO2)N1CCC(CN2CCCCC2)CC1 was read as TAR Tat displ 0.72.
Screening CC1=NN(C(=O)c2ccco2)C(O)(c2ccccc2)C1 (stereo unspecified) returned CDC25B-CDK2 inh -0.05.
`Cc1nnc2ccc(NCCc3ccc(S(N)(=O)=O)cc3)nn12` gave TAR Tat displ -0.05 and CDC25B-CDK2 inh -1.2.
For CC1=C(C(=O)OCc2ccccc2)C(c2cccs2)n2ncnc2N1 (stereo unspecified) the results were TAR Tat displ -0.77 and CDC25B-CDK2 inh -2.2.
Screening CSc1sc(C)cc1C1C(C(=O)Nc2ccccn2)=C(C)NC2=C1C(=O)CCC2 (stereo unspecified) returned TAR Tat displ 0.87 and CDC25B-CDK2 inh -0.64.
`CC(C)c1n[nH]c(=O)c2c1nnn2Cc1ccccc1F` gave TAR Tat displ -0.62 and CDC25B-CDK2 inh -0.98.
Screening O=S(=O)(c1cnc[nH]1)N1CCC(N2CCCCC2)CC1 returned TAR Tat displ 0.6 and CDC25B-CDK2 inh -0.87.
Cc1oc2c(C)c3oc(=O)c4c(c3cc2c1C)CCCC4 was read as CDC25B-CDK2 inh -3.1.
Screening COc1cc(C2CC(=O)N3CN(c4ccccc4)CSC3=C2C#N)ccc1O (stereo unspecified) returned TAR Tat displ 32* and CDC25B-CDK2 inh 0.52.
Screening Clc1ccc(CN2C3=NCCCN3c3ccccc32)cc1 returned TAR Tat displ 0.43 and CDC25B-CDK2 inh -0.44.
Screening COc1ccc(-c2noc(=O)n2Cc2ccccc2F)cc1 returned TAR Tat displ 0.69 and CDC25B-CDK2 inh 0.85.
`Cc1cc(-c2ccc(S(=O)(=O)N3CCN(C(c4ccccc4)c4ccccc4)CC3)s2)on1` gave TAR Tat displ 1.4.
O=C1c2ccccc2C(=O)c2sccc21 was read as CDC25B-CDK2 inh -3.2.
`COc1ccc(-c2nc(-c3cccc([N+](=O)[O-])c3)cs2)cc1` gave CDC25B-CDK2 inh -2.1.
For CCCNS(=O)(=O)c1c(C(=O)OCC)c(C)n(C)c1C the results were TAR Tat displ 2.7.
COc1cc(Br)c(C2CC(=O)Nc3cc4c(cc32)OCCO4)cc1OC (stereo unspecified) was read as CDC25B-CDK2 inh 0.14.
Screening COc1ccc(OCC(O)CNC(=O)c2c(-c3ccccc3)noc2C)cc1 (stereo unspecified) returned CDC25B-CDK2 inh -1.8.

Grouped by structure: the compounds so far containing a furan ring, fused or not.
For CCC(C(=O)N1CCN(C(=O)c2ccco2)CC1)n1nc(C)c2sc3ccccc3c2c1=O (stereo unspecified) the results were TAR Tat displ 2.6 and CDC25B-CDK2 inh -0.48.
For Cc1c(C(=O)NCCCN2CCCC2=O)oc2ccc3c(c12)C(O)CC(C)(C)O3 (stereo unspecified) the results were TAR Tat displ 0.23.
For O=C1CN(C(=O)c2ccco2)c2ccccc2N1 the results were TAR Tat displ -0.24 and CDC25B-CDK2 inh -1.8.
Screening CC(c1ccccc1)n1c(/C=C/c2ccco2)nc2ccccc21 (stereo unspecified) returned TAR Tat displ -6.2 and CDC25B-CDK2 inh 2.6.
Screening CC1=NN(C(=O)c2ccco2)C(O)(c2ccccc2)C1 (stereo unspecified) returned CDC25B-CDK2 inh -0.05.
Cc1oc2c(C)c3oc(=O)c4c(c3cc2c1C)CCCC4 was read as CDC25B-CDK2 inh -3.1.

Sorted by formula weight (ascending): three of the compounds above.
`CC(C)c1n[nH]c(=O)c2c1nnn2Cc1ccccc1F` gave TAR Tat displ -0.62 and CDC25B-CDK2 inh -0.98.
`COc1ccc(-c2nc(-c3cccc([N+](=O)[O-])c3)cs2)cc1` gave CDC25B-CDK2 inh -2.1.
COc1cc(Br)c(C2CC(=O)Nc3cc4c(cc32)OCCO4)cc1OC (stereo unspecified) was read as CDC25B-CDK2 inh 0.14.

(next part)
`CC1CCC(NC(=O)c2c(N3CCCC3=O)c3cc(F)ccc3n2C)CC1` (stereo unspecified) gave TAR Tat displ 0.44.
`CN1C(=O)c2ccccc2Sc2cc(-c3noc(-c4cnccn4)n3)ccc21` gave TAR Tat displ 2.4.
For O=C(CCCN1C(=O)c2cccnc2Sc2ccccc21)NCCc1cccs1 the results were TAR Tat displ 0.15.
Cc1nnc(NC(=O)CCCC(=O)O)s1 was read as TAR Tat displ 1.1 and CDC25B-CDK2 inh 0.87.
CCCN(CCC)CCNC(=O)c1sc2nc3n(c(=O)c2c1C)CCCC3 was read as TAR Tat displ 1.8.
Screening O=C(CSc1nc2c(c(=O)[nH]1)CCCC2)Nc1cccc(O)c1 returned TAR Tat displ 2.1 and CDC25B-CDK2 inh 0.
For COc1cccc(N2C(=O)N(c3cccc(Cl)c3)C3CS(=O)(=O)CC32)c1 (stereo unspecified) the results were TAR Tat displ -0.72 and CDC25B-CDK2 inh -0.9.
For CCOC(=O)Cn1nnc2sc3c(c2c1=O)CCCC3 the results were TAR Tat displ -2.5 and CDC25B-CDK2 inh -1.2.
For COc1ccc(OCCn2c(CN3CCOCC3)nc3ccccc32)cc1 the results were TAR Tat displ -0.8 and CDC25B-CDK2 inh -0.78.
CCCCCCSC1=C(C#N)C(c2ccc(Cl)cc2)CC(=O)N1 (stereo unspecified) was read as TAR Tat displ 1.6 and CDC25B-CDK2 inh -1.2.
`CC1CC(C)CN(C(=O)CN2C(=O)COc3ccc(S(=O)(=O)N4CCOCC4)cc32)C1` (stereo unspecified) gave TAR Tat displ -0.5.
For CCN1CCC2(CC1)OC(=O)C(C)=C2C(=O)Nc1ccc2c(c1)OCO2 the results were TAR Tat displ 0.22.
COc1cc(C2CC(=O)N3CN(Cc4ccco4)CSC3=C2C#N)ccc1OCc1ccccc1 (stereo unspecified) was read as TAR Tat displ -1.2 and CDC25B-CDK2 inh -0.88.
For COC(=O)c1sccc1S(=O)(=O)N1CCN(c2ncccn2)CC1 the results were TAR Tat displ 1.7.
For C/C(=N\NC(=S)NC(C)(C)C)c1ccc(OCc2ncc(C(F)(F)F)cc2Cl)cc1 the results were CDC25B-CDK2 inh -1.2.
For CC(C)n1c(C(O)c2ccccc2)nc2ccccc21 (stereo unspecified) the results were TAR Tat displ 0.68 and CDC25B-CDK2 inh -2.2.
`CSc1nc2c(c(=O)[nH]1)C(c1ccc(Cl)cc1)c1c(nc(SC)[nH]c1=O)O2` gave CDC25B-CDK2 inh -0.7.
Screening CCCS(=O)(=O)N1CCCc2ccc(NS(=O)(=O)c3ccc(C)cc3C)cc21 returned TAR Tat displ 0.78.
For O=C(Nc1ccc2c(c1)OCO2)c1cnn(-c2ccccc2)c1C1CCNCC1 the results were TAR Tat displ 0.73.
For CC(=O)N1CCOc2ccc(S(=O)(=O)N3CCSc4ccccc43)cc21 the results were TAR Tat displ 2.2.
For CCOC(=O)C(C)Oc1ccc2c(C)c(CCC(C)C)c(=O)oc2c1 (stereo unspecified) the results were CDC25B-CDK2 inh 0.22.
COc1ccc(-c2cc3nccc(-c4ccccc4O)n3n2)cc1 was read as TAR Tat displ 0.9 and CDC25B-CDK2 inh -0.4.
`CC(C)(C)c1cc2nc(C(F)(F)F)cc(N/N=C/c3ccc(Cl)cc3)n2n1` gave CDC25B-CDK2 inh -1.6.
For O=C(NCC1CCCO1)c1cc(-c2ccccc2)nc2ccccc12 (stereo unspecified) the results were TAR Tat displ -1.
`CC1CC(=O)Nc2cc(S(=O)(=O)Nc3nccs3)ccc2S1` (stereo unspecified) gave TAR Tat displ 0.66.
NC(=O)c1c(NC(=O)C2CCCO2)sc2c1CCCC2 (stereo unspecified) was read as TAR Tat displ 1.4 and CDC25B-CDK2 inh -0.13.
Screening CCOc1cc(-c2cccs2)nc(N)n1 returned CDC25B-CDK2 inh -2.
O=C(Nc1ccc(S(=O)(=O)Nc2ncccn2)cc1)c1cc(=O)c2ccccc2o1 was read as TAR Tat displ -1.7 and CDC25B-CDK2 inh -1.3.
Screening Cn1c2ccccc2c2cnn(CC(=O)N3CCCC3)c(=O)c21 returned TAR Tat displ -1.4 and CDC25B-CDK2 inh -0.29.
`COCCNc1nc2c(S(=O)(=O)c3cc(C)ccc3C)nnn2c2ccsc12` gave TAR Tat displ -0.64.
`c1ccc2c(c1)CC/C2=N\NC1=NCCN1` gave CDC25B-CDK2 inh -1.3.
